High-throughput results (PubChem)
Bfl-1 A1 inh: inhibitors of the anti-apoptotic protein A1, read as caspase activation; MEF A1-2A-BIM cells, Caspase-Glo 3/7 luminescence, 3 h; percent of clofoctol response, vehicle zero; caspase activation, % (test concentration not listed); hit rate 0.066% among 330,000; AID 2462;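 active = over half of replicate activation scores above 10%, or exactly half above 10 with the replicate mean above 10; inconclusive = replicate mean below 10 yet half the replicates above 10; inactive = over half of replicates below 10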;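 also: wells of about 30 µL received 50 nL stock; many hits fall short of the cut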
AF4-AF9 inh: MLL-AF4/AF9 protein interaction inhibition; AlphaScreen, biotin-AF4 peptide binding to FLAG-AF9; P42568; AID 651704; inhibition, % at 10 µM; hit rate 0.47% among 350,000;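 active = every replicate reaching a set inhibition limit, whatever the replicate mean, cut at about 25% in these data; inconclusive = mean inhibition reaches that limit but some replicates miss it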;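 also: 0% = plate neutral control median and 100% = total signal loss; the record names both 10 and 1 µM as test concentration; the first replicate is given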
Target sequence (P42568 whole entry, looked up): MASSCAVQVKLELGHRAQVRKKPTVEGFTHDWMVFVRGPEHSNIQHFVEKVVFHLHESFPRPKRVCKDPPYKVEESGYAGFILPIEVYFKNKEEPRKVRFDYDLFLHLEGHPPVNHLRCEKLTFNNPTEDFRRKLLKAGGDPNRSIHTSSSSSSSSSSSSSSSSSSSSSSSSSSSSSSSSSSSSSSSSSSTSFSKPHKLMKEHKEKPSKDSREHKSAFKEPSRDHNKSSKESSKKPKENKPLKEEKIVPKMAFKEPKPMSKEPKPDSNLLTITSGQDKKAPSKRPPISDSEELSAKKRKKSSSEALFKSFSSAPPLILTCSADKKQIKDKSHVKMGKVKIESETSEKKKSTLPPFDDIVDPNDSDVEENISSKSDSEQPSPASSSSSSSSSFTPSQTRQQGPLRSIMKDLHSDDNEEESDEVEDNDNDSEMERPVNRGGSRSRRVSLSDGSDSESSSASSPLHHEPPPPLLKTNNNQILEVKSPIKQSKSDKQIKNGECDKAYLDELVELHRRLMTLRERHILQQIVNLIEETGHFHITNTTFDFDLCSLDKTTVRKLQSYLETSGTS
RanGTP-Impb inh: inhibitors of RanGTP-importin-beta interaction, primary screen, biochemical, FRET, CFP-Ran, YFP-importin-beta, homogeneous; inhibition, % (test concentration not listed); cell-free CFP-Ran/YFP-importin-beta FRET ratio; hit rate 1.1% among 300,000;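 active = most replicates above 15%; inconclusive = exactly half above 15%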;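 also: 0% = DMSO wells and 100% = Ran loaded with GDP instead of GTP; wells of about 40 µL received 100 nL stock; the first replicate is given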
Vif TR-FRET: HIV-1 Vif–A3G interaction blockers – biochemical, TR-FRET, GST-Vif 1-94, biotin-A3G peptide, dose response retest, primary screen (AID 1117319) | TR-FRET GST-Vif / biotin-A3G peptide binding; higher % means a stronger effect; test concentration not given here; strong numbers were not always called active | one-dose inhibition, %; IC50 in µM for titrated hits | hit rate 0.57% among 260,000;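 active = above the screen mean plus three standard deviations and confirmed in dose response; inconclusive = results disagree or hit not tested in dose response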;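 also: Vif residues 1-94 fused to GST binding biotinylated APOBEC3G peptide 110-148; 0% = full assay without inhibitor and 100% = GST in place of GST-Vif; retest series ran down from 100 µM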
T cruzi repl: blocks replication of Trypanosoma cruzi. T. cruzi beta-gal in NIH3T3, luminescence, 90 h. hit rate 1.4% among 300,000. inhibition, % (test concentration not listed);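 active = mean inhibition across valid replicates above about 55%, limit read from the data; inconclusive = mean below that limit but half or more replicates reach it; inactive = mean below it, under half of replicates reach it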;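 also: signal also drops with host cell toxicity which is not excluded here; 0% = plate median of DMSO wells and 100% = zero luminescence signal; higher percent means less beta-gal luminescence so fewer parasites; stock transfer was 50 nL into about 50 µL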
Beta cell apopt: beta cell apoptosis inhibition; INS-1E cytokine-induced death, ATP luminescence, 48 h; percent of positive-control rescue, neutral wells zero; protection from apoptosis, % (no concentration beside the values); hit rate 0.8% among 300,000;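 active = all replicates at 75% or more, or half of them and the mean; inconclusive = half reach 75% but not the mean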;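 also: 0% = cytokine-treated negative control wells and 100% = positive control rescue; higher means more ATP so stronger rescue from cytokine killing; wells of about 40 µL received 100 nL stock; the first replicate is given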
Calb FLC: affects C. albicans growth with fluconazole. AID 1979. growth inhibition, % (test concentration not listed). C. albicans CaCi-2 (fluconazole-resistant clinical isolate) + fluconazole, Alamar Blue growth, 48 h. hit rate 0.57% among 300,000;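 active = most replicates above 75%; inconclusive = exactly half above 75%; inactive = most below 75%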;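 also: all wells also contain fluconazole at 8 µg/ml as a sub-toxic cotreatment; 0% = median of DMSO wells and 100% = median of geldanamycin control wells; wells of about 8 µL received 7.5 nL stock; the first replicate is given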
LANA-H2B inh: blocks KSHV LANA binding to histone H2A/H2B | cell-free LANA-H2A/H2B peptide, fluorescence polarization | inhibition, % (no concentration beside the values) | hit rate 0.6% among 320,000; in the data active = inhibition mostly above about 10%, no sharp cut-off; inactive = mostly below about 6.7%;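 also: stock transfer was 7.5 nL into about 10 µL; 0% = median of vehicle wells and 100% = median of positive control wells; one replicate is shown; the record names a cut of 25% in any replicate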
Active calls of the source: *; u = inconclusive; x = not tested or not shown.

Preview (2 entries):
SMILES	Bfl-1 A1 inh	AF4-AF9 inh	RanGTP-Impb inh	Vif TR-FRET	T cruzi repl	Beta cell apopt	Calb FLC	LANA-H2B inh
CCN(CC)c1ccc(N=Cc2c(O)n(-c3ccc(Cl)cc3)c(=O)[nH]c2=O)cc1	-0.7	x	-0.4	38µM*	6	-10	0	-7.8
CC(=O)c1c(C)n(Cc2ccccc2)c2ccc(O)cc12	-0.1	-16	-0.4	1%	-3	-4	1	5.0

All compounds of this part, from the first entry:
SMILES	Bfl-1 A1 inh	AF4-AF9 inh	RanGTP-Impb inh	Vif TR-FRET	T cruzi repl	Beta cell apopt	Calb FLC	LANA-H2B inh
CCN(CC)c1ccc(N=Cc2c(O)n(-c3ccc(Cl)cc3)c(=O)[nH]c2=O)cc1	-0.7	x	-0.4	38µM*	6	-10	0	-7.8
CC(=O)c1c(C)n(Cc2ccccc2)c2ccc(O)cc12	-0.1	-16	-0.4	1%	-3	-4	1	5.0
CCCCn1c(=O)c(C(=O)Nc2ncccc2C)c(O)c2ccccc21	0.1	-3.7	-2.4	x	7	-9	-4	3.1
Cc1ccc(-n2c(O)c(/C=N/N3CCCCCC3)c(=O)[nH]c2=O)cc1C	-0.6	-3.9	22*	3%	-13	-5	29	0.9
Fc1ccc(CCNCc2ccc(Cl)c(Cl)c2)cc1	-0.3	2.3	3.2	0%	67*	-3	-6	-4.1
c1ccc2sc(C3CCCNC3)nc2c1 (centres undefined)	-1.3	x	-1.4	-4%	8	2	1	-1.0
CCN(CC)C(=O)c1ccc(NC(=O)CN2CCc3cc(OC)c(OC)cc3C2)cc1	-0.2	1.3	2.4	-1%	12	-12	-8	-4.4
Cc1cccc(OCC(=O)N2CCN(Cc3ccncc3)CC2)c1	0.7	x	3.7	u	-4	-5	-3	-3.6
CC(=O)N1CCC(N2CCCC(C(=O)c3cccc(Cl)c3)C2)CC1 (centres undefined)	-1.7	-0.1	-1.0	x	-2	-1	-11	-8.0
CCOc1ccccc1-n1c(O)c(C=NCCCN(CC)CC)c(=O)[nH]c1=O	-0.3	x	-2.0	-6%	-9	-7	-7	1.2
COc1ccc2c(c1O)C13CCN(C)C(C2)C1CCC(=O)C3 (centres undefined)	0.2	-1.1	1.7	x	-9	-3	4	-1.0
CCn1c(O)c(N=Nc2ccc(S(=O)(=O)N3CCOCC3)cc2)c(=O)n(CC)c1=S	0.1	-5.3	-0.1	u	-28	-8	-5	-3.5
O=C1C2C3CCC(O3)C2C(=O)N1CCO (centres undefined)	-0.5	-2.1	1.0	x	-8	-7	x	-1.3
Cc1ccc2c(c1)CC1(CN2C)C(=O)NC(=O)N(CCC2=CCCCC2)C1=O (centres undefined)	0.5	x	2.7	16%	0	-4	-12	-6.9
CNCC1(c2ccccc2)CCCC1	0.6	x	u	-11%	-16	0	-7	-7.6
COc1cc2c(c(OC)c1OC)-c1ccc(O)cc1[C@@H](NC(C)=O)CC2	1.4	1.3	0.0	x	14	59	0	1.2
CCNC(=O)C1OC(n2cnc3c(N)ncnc32)C(O)C1O (centres undefined)	-0.6	x	-0.7	x	-7	-2	1	0.3
[N-]=[N+]=NCc1cn2cccnc2n1	0.3	-7.1	3.7	1%	-8	x	32	2.8
O=P(Nc1ccccc1)(Nc1ccccc1)Oc1ccccc1	-0.3	-1.9	1.9	x	17	-6	4	-4.4
O=C(COC(=O)Cc1ccccc1)Nc1ncc(Cl)cc1Cl	0.3	x	1.1	6%	-12	-17	-1	0.9
N=C(N)c1c(O)n(C2CCCCC2)c(=O)n(C2CCCCC2)c1=O	-0.3	x	0.7	12%	x	57	-5	-0.2
CNc1cc(N2CCNCC2)ccc1[N+](=O)[O-]	-0.1	0.8	-4.5	x	-5	7	-15	-2.8
Cc1c(C=O)c2ccccc2n1Cc1ccc(F)cc1	-0.1	-1.4	4.2	67%	-12	-3	2	-14
COc1ccc2c(c1OC)C(=O)O[C@H]2[C@@H]1c2cc3c(cc2CCN1C)OCO3	0.2	2.0	x	x	x	-8	x	7.5
Cc1ccc(NP(=O)(c2ccccc2)c2nc3ccccc3s2)cc1 (centres undefined)	0.4	-2.2	0.3	17%	12	2	16	0.3
c1ccc(CNC2=NCCS2)cc1	-0.6	x	0.2	19%	17	-6	0	-0.2
CCOC(=O)C(O)(c1ccc(N(CC)C(=O)COc2ccccc2)cc1)C(F)(F)F (centres undefined)	-0.9	x	-1.4	x	2	5	2	3.7
Cn1cccc1/C=C1\C(=O)NC(=O)N(CCC2=CCCCC2)C1=O	x	-0.8	4.6	x	-13	x	-14	x
CCn1c(O)c(/C=N/NC(=O)c2ccccc2)c(=O)[nH]c1=S	-0.5	-0.8	0.2	8%	-14	-1	4	-0.9
COc1ccc2c(c1O)-c1c(OC)c(OC)cc3c1[C@H](C2)N(C)CC3	0.7	5.6	x	x	x	0	x	0.4
CCN(CC)P(=O)(Oc1cccc(C)c1)N(CC)CC	-0.5	x	-0.4	-4%	-1	-4	5	-3.8
O=C1OCCN1P(=O)(c1ccccc1)c1ccccc1	0.3	x	7.5	-3%	5	-4	-17	4.7
O=P(O)(O)/C=C(\Cl)c1ccccc1	1.8	x	-2.4	27%	-12	-3	-7	1.2
C[C@]12C[C@@H](O)[C@H](O)CC1=CCC1C2CC[C@@]2(C)C1CC[C@@H]2O (some centres undefined)	1.6	-0.1	x	-4%	x	1	x	0.0
O=C(c1cccn2c(=O)c3cc(Br)ccc3nc12)N1CCC2(CC1)OCCO2	0.3	x	12	5%	3	-1	2	0.3
CCCCn1c(N)c(C(=O)OCCOC)c2nc3ccccc3nc21	0.7	-3.9	u	-1%	13	-7	7	-0.9
CCN(CC)c1ccc(C=C2C(=O)N(C)C(=S)N(C)C2=O)o1	1.3	-5.6	-10	16%	8	4	3	-8.8
Cc1nc2ccc(Cl)cc2c(=O)n1-c1cccc(Cl)c1	0.1	-3.3	-7.1	x	17	3	-11	-1.6
Cc1ccccc1N1C(=O)/C(=C/c2ccco2)C(=O)NC1=S	-0.2	x	2.1	x	-9	4	4	26*
Cc1ccc(S(=O)(=O)NP(=O)(Oc2ccccc2)Oc2ccccc2)cc1	0.5	6.1	8.1	32%	-14	-6	20	6.0
O=C(O)C1C2CCC(O2)C1C(=O)Nc1ccc(Cl)cc1 (centres undefined)	-0.1	-0.9	0.7	3%	-10	x	-5	1.3
COC(=O)C1=C(c2ccc3ccccc3c2)C[C@@H]2CC[C@H]1N2C(=O)NCCO	-0.8	0.5	x	x	x	-13	x	0.7
CN1CCN(Cc2ccc3ccccc3c2)CC1	-0.1	-0.3	-1.5	x	43	-7	1	-7.7
CN1C(=O)C(Cc2nc3ccccc3c(=O)n2-c2ccccc2)c2ccccc21 (centres undefined)	-0.2	x	-1.5	5%	-8	0	-23	-5.0
COc1ccc(CCNCc2cccn2C)cc1OC	0.1	10	u	x	43	-3	0	-3.5
COC(=O)c1c(C)[nH]c(C(=O)C(C)[N+]23CCN(CC2)CC3)c1C (centres undefined)	-1.0	0.4	0.5	x	-8	-12	-2	2.8
O=C1NC(=O)N(c2ccccc2)C(=O)/C1=C/c1ccc(Sc2ccccc2)o1	-1.4	x	-3.8	16%	-10	-1	10	-1.1
Cc1ccc(CN2C3CCCC2CC(NC(=O)Nc2cccc(F)c2)C3)cc1 (centres undefined)	0.0	3.1	-0.5	4%	45	1	22	2.3
CCOC(=O)C(C)(CC)NC(=O)CSP(=S)(OCC)OCC (centres undefined)	0.3	x	2.3	7%	-7	-3	-1	-4.4
O=C(Nc1ccccc1)NC1CC2CCC(C1)N2 (centres undefined)	-0.1	x	1.2	8%	-10	2	6	2.7

Later entries.
SMILES	Bfl-1 A1 inh	AF4-AF9 inh	RanGTP-Impb inh	Vif TR-FRET	T cruzi repl	Beta cell apopt	Calb FLC	LANA-H2B inh
O=c1c2ccccc2nc(-c2cccs2)n1-c1ccccc1	0.7	x	0.2	4%	1	0	-6	3.6
CN(C(=O)c1ccco1)C1(c2ccccc2Cl)CCCCC1=O (centres undefined)	0.3	x	5.0	-2%	-3	-1	-2	-1.1
CCCCCCCC(=O)NC(Oc1ccccc1[N+](=O)[O-])C(Cl)(Cl)Cl (centres undefined)	0.0	2.3	0.3	1%	-2	1	-27	1.4
Cn1cc([N+](=O)[O-])c(C(=O)Nc2ccc3c(C(F)(F)F)cc(=O)oc3c2)n1	-3.9	1.8	-1.3	4%	-25	-72	-5	-1.3
CCC(C)N1C(=O)/C(=C\c2cnc(N(C)C)nc2)C(=O)NC1=S (centres undefined)	-0.1	-1.2	-6.5	8%	-3	-6	-1	1.0
O=c1[nH]c(=S)[nH]c(O)c1N=Nc1ccc2c(c1)OCCO2	-9.8	4.2	-19	x	-9	35	-5	-2.7
CCC(=O)C(CCN1CCOCC1)(c1ccccc1)c1ccccc1	-0.5	-1.1	-1.3	x	5	x	-4	-1.6
COc1ccc(C(=O)Nc2cccc(S(=O)(=O)NCc3ccco3)c2)cc1	0.1	-5.4	x	-2%	x	4	x	1.9
COc1ccc(OCC(=O)N2CCCC(N3CCN(c4ccccc4C)CC3)C2)cc1 (centres undefined)	-0.2	4.5	6.0	x	16	-4	-8	2.3
O=C(O)Cn1cc(/C=C2\C(=O)NC(=O)N(c3ccc(F)cc3)C2=O)c2ccccc21	0.6	x	-3.4	x	-11	-8	-4	-2.6
COC(=O)N(C)c1ccc(C(O)(C(=O)OC)C(F)(F)F)cc1 (centres undefined)	0.0	0.8	-4.6	-1%	-9	-1	-9	5.5
FC(F)(F)c1ccccc1CCN1CCNCC1	0.4	0.0	7.4	-8%	2	-6	6	-6.8
N#CCC(=O)NN1Cc2ccccc2C1=N	0.3	-2.4	1.1	x	-16	-2	0	2.9
O=C(Nc1ccccc1)c1c(O)c2c(n(Cc3ccco3)c1=O)CCCC2	0.0	-0.9	u	-8%	-4	x	1	2.5
Cc1nc2ccc(Br)cc2c(=O)n1-c1ccc([N+](=O)[O-])c(C(F)(F)F)c1	0.2	1.2	5.0	x	34	41	22	-3.5
CCCCCSc1cc(OC)c(CCN(C)C)cc1OC	0.5	x	-0.9	u	49	14	3	-1.9
Cc1cccc(OP(N)(N)=O)c1C	0.2	-0.7	-0.8	x	-20	-13	6	3.1
COc1ccccc1N1CCN(Cc2ccc(F)cc2)CC1	0.2	x	1.9	x	9	2	-10	8.3
COc1cc(O)cc2c1C(=O)OC(C)CCCC(=O)CCC/C=C\2 (centres undefined)	0.0	4.2	-1.9	-4%	3	-3	3	-4.5
Cc1cccc(N2C(=O)CC(=O)NC2=O)c1	-1.4	x	-0.1	11%	4	4	-4	2.6
CC(O)(CS(=O)(=O)c1ccccc1)C(=O)Nc1cccc(C(F)(F)F)c1 (centres undefined)	-0.2	x	-3.0	-2%	-2	2	-26	-8.9
CSc1ccc(CNC2CN3CCC2CC3)cc1 (centres undefined)	0.1	4.0	-0.1	2%	9	0	-13	2.2
CNCC(=O)c1ccccc1	-0.3	x	-0.3	x	-5	-6	5	-2.6
Cc1ccc(S(=O)(=O)Oc2ccccc2C=C2C(=O)N(C)C(=O)N(C)C2=O)cc1	-0.7	-15	1.4	x	-1	-5	-2	0.5

A portion of the library, so the mix of outcomes need not match the whole.
